# KCNQ2 enhance = KCNQ2 (rat) channel potentiation | AID 2239 | O88943 | CHO-K1 KCNQ2, FluxOR thallium flux fluorescence; stronger effect = higher value | actives 0.54% (n = 310,000) | B-score at 10 µM;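 active = fluorescence ratio B-score at least 3 SD of library B-scores, with initial fluorescence B-score within 3 SD, cut at about 5.3 in these data; same plate scores as AID 2156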;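 also: B-score of peak minus minimum over baseline fluorescence ratio after K+ and Tl+ stimulus; positive B-score means potentiation of KCNQ2 with more thallium influx and brighter signal; only the inactives scoring about 0 or higher are listed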
# Target sequence (O88943 whole entry, looked up): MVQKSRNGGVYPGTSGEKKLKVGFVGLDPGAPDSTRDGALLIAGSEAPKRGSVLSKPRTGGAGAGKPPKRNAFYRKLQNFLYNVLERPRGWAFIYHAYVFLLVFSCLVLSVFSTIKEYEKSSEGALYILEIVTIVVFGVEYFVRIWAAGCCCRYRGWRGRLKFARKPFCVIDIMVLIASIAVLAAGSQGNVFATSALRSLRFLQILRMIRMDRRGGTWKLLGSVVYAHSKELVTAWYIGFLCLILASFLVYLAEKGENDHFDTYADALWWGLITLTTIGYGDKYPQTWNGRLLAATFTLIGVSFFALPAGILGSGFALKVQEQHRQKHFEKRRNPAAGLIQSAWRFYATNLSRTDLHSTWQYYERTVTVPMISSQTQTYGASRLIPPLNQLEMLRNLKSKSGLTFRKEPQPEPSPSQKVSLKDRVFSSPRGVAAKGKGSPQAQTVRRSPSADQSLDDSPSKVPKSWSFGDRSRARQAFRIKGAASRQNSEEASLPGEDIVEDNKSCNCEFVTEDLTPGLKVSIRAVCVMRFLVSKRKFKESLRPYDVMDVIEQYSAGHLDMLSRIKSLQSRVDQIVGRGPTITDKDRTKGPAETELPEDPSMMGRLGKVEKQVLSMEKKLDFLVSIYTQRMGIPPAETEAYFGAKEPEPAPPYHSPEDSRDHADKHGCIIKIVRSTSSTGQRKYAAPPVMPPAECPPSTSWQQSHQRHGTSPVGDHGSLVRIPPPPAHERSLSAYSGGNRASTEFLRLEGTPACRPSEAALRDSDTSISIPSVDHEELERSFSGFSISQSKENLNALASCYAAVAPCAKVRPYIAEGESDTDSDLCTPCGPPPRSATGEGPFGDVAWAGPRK
# KCNQ2 enhance baseline = second read-out of KCNQ2 enhance, no call of its own (marks repeat the call); B-score; compound at 10 µM; measured here: initial fluorescence intensity artifact check;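 brightness before thallium and not channel activity; 0 = typical well and far values either way flag optical interference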
# The depositor's hits bear a star. This is a subset (hit frequency here may not be typical).
# Fields – KCNQ2 enhance baseline | KCNQ2 enhance
O=C(CSc1ccc(-c2ccccn2)nn1)c1ccc([N+](=O)[O-])cc1
    0.48 | 0.6
C[N+]1(CCN2C(=O)C3CC=C(Cl)CC3C2=O)CCOCC1 (stereo not given)
    0.59 | 0.21
CCOc1ccc(-c2csc(NC(=O)c3cccc(N4C(=O)CCC4=O)c3)n2)cc1
    0.9 | 1.2
CC(C)c1ccc(Cc2nnc(NCCCO)[nH]c2=O)cc1
    -3.5 | 0.24
O=C(/C=C/c1ccccc1[N+](=O)[O-])Nc1cccnc1
    0.02 | 1
CCc1ncc(/C=C2\C(=O)Nc3ccccc32)[nH]1
    -0.72 | 1.5
CC(C)(C)n1ncc2c(=O)n(CC(=O)c3ccccc3)cnc21
    -0.42 | 1.4
O=C(COc1ccc(Br)cc1)Nc1ccc2oc(=O)ccc2c1
    -0.32 | 0.38
O=S(=O)(NC1CC1)c1ccccc1
    -0.86 | 1.6
N#C/C(=C\c1ccc(C(=O)O)cc1)S(=O)(=O)c1cc(Br)ccc1Br
    -1.2 | 0.08
CC1CCOC(c2coc3ccccc3c2=O)O1 (stereo not given)
    -0.09 | 0.05
COc1cccc2c1OC1(C)CC2/C(=C(\C)O)C(=O)N1 (stereo not given)
    0.83 | 0.21
CCC(CC)C(=O)N=C1SC2CS(=O)(=O)CC2N1CCc1ccc(OC)cc1 (stereo not given)
    0 | 0.2
c1ccc(-c2cc(-c3nnco3)c3ccccc3n2)nc1
    0.55 | 0.09
COc1ccc(CCNC(=O)c2nnn(CC(=O)Nc3c(C)cc(C)cc3C)c2N)cc1OC
    1.7 | 0.03
O=C(/C=C/c1ccc(Cl)cc1Cl)NCc1ccco1
    1.9 | 1.8
O=C(c1ccc(CN2CCOCC2)cc1)N1CCN(c2cccc(Cl)c2)CC1
    -0.78 | 0.08
CC(Sc1nnc(-c2ccco2)n1C)C(=O)Nc1nccs1 (stereo not given)
    0.98 | 0.53
Cc1ccc(C(=O)N2CCCCC2)cc1S(=O)(=O)N1CCCCCC1
    0.46 | 0.19
Cn1nc(C(C)(C)C)cc1NC(=O)Nc1ccc(Cl)cc1
    -0.48 | 0.54

# The list goes on, overlapping the part above by 2 compounds.
# Fields – KCNQ2 enhance baseline | KCNQ2 enhance
Cc1ccc(C(=O)N2CCCCC2)cc1S(=O)(=O)N1CCCCCC1
    0.46 | 0.19
Cn1nc(C(C)(C)C)cc1NC(=O)Nc1ccc(Cl)cc1
    -0.48 | 0.54
O=[N+]([O-])c1ccc2[nH]cc(S(=O)(=O)N3CCN(c4cccc(Cl)c4)CC3)c2c1
    0.97 | 1
COc1cccc(/C=N/n2c(C3CCCCC3)n[nH]c2=S)c1O
    0.67 | 1.4
CC(C)N1CCC(=NNc2ccc([N+](=O)[O-])cc2S(=O)(=O)N2CCOCC2)CC1
    2.3 | 0.02
Cc1ccc2oc(-c3cccc(NC(=O)/C=C/c4cccc([N+](=O)[O-])c4)c3C)nc2c1
    -0.26 | 0.01
CCOC(=O)N1CCN(C(=O)CCc2ccc(S(=O)(=O)NC(C)C)cc2)CC1
    -1.4 | 1.7
CCOC(=O)c1ccc(NC(=O)CSc2nc(=O)n3cccc(C)c3n2)cc1
    -2.1 | 0.86
COC(=O)[C@H](CCSC)NC(=O)NCc1ccccn1
    -0.15 | 0.03
N#Cc1c(C(F)(F)F)cc(C2CC2)[nH]c1=O
    -1.2 | 1.2
O=C(OCN1C(=O)c2ccccc2C1=O)c1cccs1
    -1.2 | 0.07
COc1ccc(C(=O)/C=C/Nc2ccc([N+](=O)[O-])cc2C)cc1OC
    -0.02 | 0.58
COC(=O)CCCC(=O)NC1CCCN(C2Cc3ccccc3C2)C1 (stereo not given)
    0.35 | 0.48
CCOc1ccc(C(=O)Nc2cc(C)on2)cc1OCC
    -0.52 | 0.02
O=C(NCCN1CCN(c2ccccc2Cl)CC1)Nc1ccccc1
    -0.58 | 0.81
Cc1n[nH]c(=S)c2nn(-c3cccc(Cl)c3)c(C)c12
    2.2 | 1.9
CCOC(=O)C1CCCN(C(=O)c2ccc(C)cc2O)C1 (stereo not given)
    0.7 | 0.86
Cc1nc2c(c(=O)c3ccccc3n2C)c(=O)n1C1CCCCCC1
    0.79 | 0.08
COc1ccc(S(=O)(=O)N2CCOCC2)cc1NC(=O)COC(=O)CCOc1ccc(C)cc1
    -0.39 | 2.1
CCCNc1nc(Cl)nc(NCc2cccnc2)n1
    2.1 | 1.1
Cc1nc2ccc(S(=O)(=O)NCC(=O)NCCN3CCCCC3C)cc2s1 (stereo not given)
    -1.1 | 0.09
Cc1ccc2c(c1)N(CC(=O)NC1CCCC1)C(=O)c1cccnc1O2
    -0.79 | 0.8
CC(=O)c1sc2nsc(SCCN3CCOCC3)c2c1N
    -0.4 | 0.03
CCOc1ccccc1-n1c(SCC(N)=O)nnc1-c1cccnc1
    0.27 | 1.3
CCOC(=O)N1CCN(C(c2ccc(C(C)C)cc2)c2sc3nc(C)nn3c2O)CC1 (stereo not given)
    -2.4 | 2.2
O=C(O)c1ccc(NC(=O)C2CCCCC2)cc1
    0.02 | 0.37
O=[N+]([O-])c1ccc(N2CCCCC2)cn1
    0.02 | 0.78
COCCn1c(C)cc(/C=C2/SC(=O)N(CC(=O)N3CCCC3)C2=O)c1C
    -0.16 | 0.41
COc1ccccc1NC(=S)N(CCCN1CCOCC1)Cc1ccccn1
    0.09 | 0.81
CCc1nnc(NC(=O)CSc2nnc(-c3ccco3)n2C)s1
    1.1 | 1.3
Cn1ccc(=Nc2ccc(NC(=O)c3ccc(N=c4ccn(C)c5ccc([N+](=O)[O-])cc45)cc3)cc2)cc1
    -0.24 | 1.2
CCCC(NC(=O)COc1cc2c(c3oc(=O)cc(C)c13)CCC(C)(C)O2)C(=O)O (stereo not given)
    1.5 | 0.6
CC(=O)N1CCN(C(=O)c2cc3ccccc3o2)CC1
    0.24 | 0.07
CCN(CCN(C)C)C(=O)c1ccc2c(c1NCCO)C(=O)c1ccccc1C2=O
    -2.6 | 0.85
O=C(N=C1SC2CS(=O)(=O)CC2N1c1cccc(Cl)c1Cl)C1CC1 (stereo not given)
    -1.4 | 0.13
O=C(CCc1cnccn1)NC1CCCc2c1cnn2-c1ccc(F)cc1F (stereo not given)
    1.1 | 1.6
CC(=O)NCCC(Cc1ccccc1)c1ccco1 (stereo not given)
    -1.1 | 0.26
COc1cccc(Cn2nnc(C(=O)NCc3ccc4c(c3)OCO4)c2N)c1
    -0.49 | 0.47
COc1ccc(-c2[nH]ncc2CN2C[C@@H]3CCC[C@H]2C3)c(F)c1
    -0.44 | 2.2
CC(=O)c1cc2c(cc1NC(=O)CN1CCN(c3ccc(F)cc3)CC1)OCO2
    0 | 0.28
COc1c(C)cc(C(=O)C2CCCN(C(=O)/C=C/c3ccccn3)C2)cc1C (stereo not given)
    -0.31 | 0.1
Cc1cccc(OCc2nc(C#N)c(N3CCCC3)o2)c1
    -0.58 | 0.77

# Entries of single compounds from above.
# COC(=O)[C@H](CCSC)NC(=O)NCc1ccccn1 across the screens: KCNQ2 enhance baseline = -0.15; KCNQ2 enhance = 0.03
# CCOc1ccc(-c2csc(NC(=O)c3cccc(N4C(=O)CCC4=O)c3)n2)cc1 across the screens: KCNQ2 enhance baseline = 0.9; KCNQ2 enhance = 1.2

# New compounds follow
# Fields – KCNQ2 enhance baseline | KCNQ2 enhance
COc1ccc2[nH]c(=O)c(CN(c3ccccc3)S(=O)(=O)c3ccccc3)cc2c1
    -0.67 | 0.98
CCOc1ccc(C(=O)Nc2ccncc2)cc1
    -1.1 | 1.8
O=C(NCCN1CCOCC1)C(=O)NCC1OCCN1C(=O)c1ccc(Cl)cc1 (stereo not given)
    0.05 | 1.1
O=C(CCNC(=O)c1ccccc1)N=Nc1c(O)[nH]c2ccccc12
    -1.5 | 1.1
CCOCCCNC(=O)c1ccc(Br)cc1
    -1.5 | 0.58
COc1ccc2c(C(=O)c3ccc(Cl)cc3)n(CCCC(N)=O)[n+]([O-])c2c1
    0.74 | 0.22
Cc1ccc(S(=O)(=O)NCCCNS(=O)(=O)c2ccccc2[N+](=O)[O-])cc1
    -0.68 | 0.26
COc1cccc(CNC(=O)C2CCN(c3nn4c(=O)cc(C)nc4s3)CC2)c1
    -0.01 | 0.98
COc1ccccc1CCC(=O)Nc1nccs1
    -0.2 | 0.77
COc1ccc(/C=N/NC(=O)c2ccc(Br)o2)cc1Cn1cc([N+](=O)[O-])cn1
    -1.8 | 0.02
Cc1nc(CN(C)C(=O)c2cc(COc3ccc4ncccc4c3)on2)cs1
    -1.8 | 0.86
COc1cc(C(=O)NCc2ccc(-c3nc4ccccc4o3)cc2)cc(OC)c1OC
    0.19 | 0.4
Cc1[nH]c2ccc(Br)cc2c(=O)c1CN1CCCCC1
    0.89 | 0.99
O=C(COC(=O)C(Cc1ccccc1)NC(=O)c1ccccc1)c1ccccc1 (stereo not given)
    -0.63 | 0.11
O=C(CCC(=O)N/N=C/c1ccc(Br)s1)NCc1ccccc1
    1.6 | 0.09
Cc1ccccc1CN1CCN(Cc2cc3ccccc3o2)CC1CCO (stereo not given)
    1.2 | 0.24
CCCCSc1nc(C)c(CC(=O)O)c(=O)[nH]1
    1.4 | 0.6
COc1ccccc1NC(=S)N1CCN(Cc2ccccc2)CC1
    -0.65 | 0.15
O=[N+]([O-])c1ccc(NCCNCCOc2nonc2-c2ccccc2)c([N+](=O)[O-])c1
    -0.1 | 2.4
CCOCCCNC(=O)c1cc(Cl)c(NC(=O)C2=C(C)OCCS2)cc1OC
    -0.72 | 0.63

# Arranged by length of the SMILES (smallest number first): part of the list above.
# Fields – KCNQ2 enhance baseline | KCNQ2 enhance
CCCCSc1nc(C)c(CC(=O)O)c(=O)[nH]1
    1.4 | 0.6
Cc1ccc(S(=O)(=O)NCCCNS(=O)(=O)c2ccccc2[N+](=O)[O-])cc1
    -0.68 | 0.26
COc1ccc(/C=N/NC(=O)c2ccc(Br)o2)cc1Cn1cc([N+](=O)[O-])cn1
    -1.8 | 0.02

# More results
# Fields – KCNQ2 enhance baseline | KCNQ2 enhance
N/C(=N\OC(=O)COc1ccccc1)c1cccnc1
    0.16 | 0.92
Cc1cc(C)nc(N2CCCC(C(=O)NCc3ccc4c(c3)OCO4)C2)n1 (stereo not given)
    -0.6 | 0.26
CCN(CC)CCCNC(=S)N(Cc1cccnc1)Cc1cc2cccc(C)c2[nH]c1=O
    0.86 | 1.1
CC(C)(C)c1ccc(NNC(=O)C2CCC2)cc1
    0.25 | 0.77
CCCCOc1ccc(C(=O)NN2CCN(C)CC2)cc1
    -0.42 | 0.07
O=C(COc1ccc2c3c(c(=O)oc2c1)CCC3)NCCCN1CCOCC1
    -1.5 | 0.02
CCCc1cc(=O)oc2cc(C)cc(OCC(=O)NCCCN3CCOCC3)c12
    0.53 | 1.3
CC1(C)N([O-])C(c2cccs2)=C[N+]1=O
    -0.11 | 0.03
CC(C)CNc1nc(=S)nc(N(C)C)[nH]1
    1.4 | 0.08
O=C1CN(C(=O)CSc2nnc(Nc3ccccc3)s2)c2ccccc2N1
    0 | 0.99
C/C=C(\C)CN1CCC(Oc2cccc(C(=O)NCc3ccccn3)c2)CC1
    -2 | 0.7
CCOc1ccc(-c2ccc3nnc(SCC(=O)NCC4CCCO4)n3n2)cc1 (stereo not given)
    -1.2 | 0.02
Cn1c2c(c(=O)[nH]c1=O)C(c1ccc(O)cc1)C1=C(N2)c2ccccc2C1=O (stereo not given)
    -1.7 | 0.71
COC(=O)c1onc(C(=O)c2ccccc2)c1C(=O)OC
    -0.95 | 0.3
CCCOc1cccc(C(=O)O)c1
    1.3 | 0.29
CCCC(=O)Nc1c2c(nn1-c1ccc(C)cc1)CS(=O)(=O)C2
    -1.1 | 1.3
O=C(Nc1ccc2ccccc2c1)c1cc(F)c(F)cc1Cl
    0.35 | 0.08
Cc1cccc(-n2c(C)nc3cc(C(=O)N4CCOCC4)ccc32)c1
    0.01 | 0.55
O=C(CSc1ccc(Cl)cc1)N/N=C/c1cccnc1
    -0.65 | 1.1
CC(=O)N1CCN(C(=O)CCc2nnc(CCCCc3ccccc3)o2)CC1
    1.8 | 1.4
COc1ccc(/C(C#N)=C/c2cccnc2)cc1
    -2 | 1.1
CC(C)(C)NS(=O)(=O)c1ccc(CCC(=O)NCc2ccc3c(c2)OCO3)cc1
    0.99 | 1.6
COc1ccc(-c2nc3ccccc3c(=O)[nH]2)cc1
    -1.2 | 1.5
COc1ccc(OC(C)C(=O)Nc2ccc(F)cc2F)cc1 (stereo not given)
    -0.38 | 0.9
Cc1ccc(S(=O)(=O)N(C)C)cc1NC(=S)NC(=O)C12CC3CC(CC(C3)C1)C2
    0.02 | 0.02
COc1ccc(NC(=O)/C(=C\c2ccccc2)NC(=O)c2ccco2)cc1
    -0.04 | 0.69
CCCc1nc(SCC(=O)N2CCCC2)c2c(=O)n(C)c(=O)n(C)c2n1
    -1.2 | 3.1
CC(=O)Nc1ccc(Nc2ncc([N+](=O)[O-])c(Nc3ccc(NC(C)=O)cc3)n2)cc1
    0.29 | 0.72
O=S(=O)(N1CCOCC1)n1c(Cc2ccccc2)nc2ccccc21
    -1.2 | 0.34
COC(=O)c1ccc(CN2CCC(Oc3ccc(C(=O)N4CCCCC4)cc3)CC2)cc1
    -2.5 | 0.01
COc1cc(NC(=S)Nc2cccnc2)cc(OC)c1OC
    0.68 | 1.1
CC(C)(C)c1ccc(C2=NC(=O)C(CC(=O)O)S2)cc1 (stereo not given)
    0.22 | 4.3
O=C(NCCN1CCOCC1)c1cccc(Br)c1
    -0.75 | 0.32
CCOc1cccc(N(C(=O)CNC(=O)c2ccco2)C(C(=O)NCC2CCCO2)c2ccccc2)c1 (stereo not given)
    -1.5 | 0.13
CCCCOC(=O)c1ccc(NC(=O)C(=O)NCCN(C)C)cc1
    1.7 | 1.4
COC(=O)C(O)(CC(=O)Nc1ccc(C)c(F)c1)C(F)(F)F (stereo not given)
    2.2 | 0.21
CCCCCC/C(C)=C1/SC(=S)NC1=O
    0.87* | 22*
Cc1ccc(S(=O)(=O)N/N=C2/CC(c3ccccc3)Oc3ccccc32)cc1 (stereo not given)
    0.44 | 1.9

# Source: PubChem (Johns Hopkins Ion Channel Center)
